Six1-Eya2 inh – blocks human Six1 binding to Eya2 | AID 651725 | activity change, % (no concentration beside the values) | AlphaScreen GST-Six1/His-Eya2 binding, biochemical; stronger effect = lower value; control for the full effect not named in the record | 360,000 compounds, 0.56% hits; in the data active = activity change below about -65%; inconclusive = about -30% to -65%; inactive = above about -30%; further: on the % scale 0 is the no-effect control and ±100 the full control effect
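GST-Six1 + His-Eya2 (5X stock: 250/500 nM); Tris pH 8.0, 300 mM NaCl, 0.05% BSA, 0.02% Tween 20; GSH donor/Ni acceptor beads; 1 h 37 °C dark; AlphaScreen readout.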
D2 ag – agonists of human D2 dopamine receptor (beta-arrestin); AID 624465; DiscoveRx PathHunter D2 beta-arrestin, luminescence, 90 min; 100% = 57 uM dopamine signal; activation, % (no concentration beside the values); P14416; 360,000 compounds, 0.084% hits; in the data active = activation above about 40%; inconclusive = about 15% to 40%; inactive = below about 15%; further: compound concentration not given in the record; the text of the record calls up to 30% inactive
Target sequence (P14416 whole entry, looked up): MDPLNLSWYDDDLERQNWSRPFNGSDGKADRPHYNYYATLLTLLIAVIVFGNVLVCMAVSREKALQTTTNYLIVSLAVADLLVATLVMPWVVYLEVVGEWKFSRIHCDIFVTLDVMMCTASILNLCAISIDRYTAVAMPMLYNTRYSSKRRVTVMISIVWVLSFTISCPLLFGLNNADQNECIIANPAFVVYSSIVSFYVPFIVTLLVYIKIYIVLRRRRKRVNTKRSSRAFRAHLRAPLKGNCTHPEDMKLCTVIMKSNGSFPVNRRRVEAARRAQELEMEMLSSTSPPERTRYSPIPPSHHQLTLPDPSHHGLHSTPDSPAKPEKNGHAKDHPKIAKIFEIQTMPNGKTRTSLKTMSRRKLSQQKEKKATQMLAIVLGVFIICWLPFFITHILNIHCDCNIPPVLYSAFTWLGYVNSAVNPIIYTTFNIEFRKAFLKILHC
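DiscoveRx PathHunter D2 beta-arrestin cells (2,100/well) attached overnight, then compound-stimulated 90 min at 37 C in HBSS/10 mM HEPES/0.1% Tween-20 buffer; beta-galactosidase complementation read by luminescence after 1 h at ambient temperature. Dopamine 57 uM final (EC100) as control.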
PINK1 expr mod – PINK1 expression modulation | PINK1 immunofluorescence, high-content cytometry, 24 h | Potency, µM (series often up to 76.6 µM), for the others: at the highest dose activation (PINK1 increase), hits mostly activators | 410,000 compounds, 0.2% hits | AID 624263; active = well fitted activation curve with a large enough effect; inconclusive = small, poorly fitted or top-dose-only effect; inactive = flat fitted curve, though single readings scatter; cell line not stated here;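 further: potency means the concentration at half of the fitted maximal effect; % of control where 0% means no effect; nearly all actives have a fitted effect of over 65% in size; a mitochondrial uncoupler was the plate control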
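Stable cell line, 250 cells/well, 12 h attachment; compounds pinned at 5 concentrations, 24 h; CCCP control. Fixed with nuclear dye, primary antibodies 12 h at 10 degrees C, secondary plus cell stain; laser-scanning cytometer read.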
TRPML1 blocker – inhibitors of human TRPML1 channel; Q9GZU1; TRPML1-inducible cells, Ca2+ dye fluorescence, FDSS; stronger effect = lower value; inhibition of EC80 agonist-evoked calcium signal; activity change, negative = inhibition, % (concentration not given with the values); 390,000 compounds, 0.02% hits; AID 624415; in the data active means activity change below about -50%; inconclusive means about -30% to -50%; inactive means above about -30%;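 further: stimulus is agonist 54-4 at its EC80 concentration; on the % scale 0 is the no-effect control and ±100 the full control effect; the text of the record puts the active cut at -80%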
Target sequence (Q9GZU1 whole entry, looked up): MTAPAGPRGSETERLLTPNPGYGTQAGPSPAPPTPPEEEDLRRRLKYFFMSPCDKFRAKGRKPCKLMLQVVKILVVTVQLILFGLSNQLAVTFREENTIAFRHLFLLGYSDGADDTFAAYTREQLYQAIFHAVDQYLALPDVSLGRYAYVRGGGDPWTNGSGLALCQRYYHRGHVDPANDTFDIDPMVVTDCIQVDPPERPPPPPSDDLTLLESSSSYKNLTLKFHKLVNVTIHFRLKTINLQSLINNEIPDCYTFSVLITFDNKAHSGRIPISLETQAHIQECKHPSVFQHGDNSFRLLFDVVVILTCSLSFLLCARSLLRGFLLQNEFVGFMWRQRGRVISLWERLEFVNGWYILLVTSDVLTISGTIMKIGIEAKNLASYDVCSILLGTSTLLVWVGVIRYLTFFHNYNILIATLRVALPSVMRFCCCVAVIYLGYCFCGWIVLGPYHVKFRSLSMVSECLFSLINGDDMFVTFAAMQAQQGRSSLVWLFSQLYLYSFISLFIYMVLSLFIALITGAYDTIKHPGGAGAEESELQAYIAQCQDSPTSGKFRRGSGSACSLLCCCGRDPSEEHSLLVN
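Calcium fluorescence in TRPML1-DL cells induced overnight with Tet: a 110 s read after compound pin addition, then a 110 s antagonist read after challenge with 54-4 at 4 uM final (EC80).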
TRPML1 agonist – human mucolipin-1 channel agonism | activation, % (test concentration not listed) | TRPML1-expressing cells, Ca2+ dye fluorescence, FDSS; host cell line not named in the record; reference of the full effect not given here | Q9GZU1 | 410,000 compounds, 0.12% hits; in the data active = activation above about 50%; inconclusive = about 30% to 50%; inactive = below about 30%; further: 0% is about no effect; the text of the record puts the active cut at 80%
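In this qHTS format, compounds were pin-transferred onto Ca8-dye-loaded TRPML1-DL cells induced with Tet overnight, and intracellular Ca2+ fluorescence was recorded kinetically for 110 s after a 10 s baseline. A subsequent 4uM final 54-4 (EC80) addition followed by a second 110 s read served as the antagonist phase.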
CtBP-E1A blk – inhibitors of CtBP/E1A interaction | AlphaScreen GST-E1A/His-CtBP binding, 1536-well; stronger effect = lower value; control for the full effect not named in the record | activity change, % (concentration not given with the values) | 340,000 compounds, 0.49% hits | AID 651724; in the data active means activity change below about -65%; inconclusive means about -30% to -65%; inactive means above about -30%; further: on the % scale 0 is the no-effect control and ±100 the full control effect
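GST-E1A and His-tagged CtBP (125 nM each as 5X stock) were preincubated with pin-transferred compound for 2 h at 37 °C in the dark, then glutathione donor and nickel acceptor beads were added for 1 h before AlphaScreen reading.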
Starred values were filed as active, the others as inactive; u = inconclusive; x = not tested or not shown; & = joins results of further samples; [ ] = remark or other dose. Hits appear at their usual frequency; about 1% have a hit in one of these screens.

Second line of a record – Six1-Eya2 inh	D2 ag	PINK1 expr mod	TRPML1 blocker	TRPML1 agonist	CtBP-E1A blk
1. Cc1ccc(-c2nnc(Nc3ccc(O)cc3)c3ccccc23)cc1S(=O)(=O)NCC1CCCO1 (stereo not given)
  x	x	0.1%	-2.6	-1.1	x
2. COc1ccc(-c2c(=O)n(OCc3ccccc3[N+](=O)[O-])c3ccccc3[n+]2[O-])c(OC)c1
  -6.4	-0.1	-2.1%	18.7	1.0	-1.0
3. O=C(COC(=O)c1ccc(F)c([N+](=O)[O-])c1)NC(=O)NCc1ccccc1
  u	0.7	-1.5%	22.7	2.2	-4.3
4. C[C@H](CO)N1C[C@H](C)[C@@H](CN(C)S(=O)(=O)c2cn(C)cn2)Oc2ccc(NS(=O)(=O)c3ccccc3)cc2C1=O
  22.0	0.6	0.4%	19.0	-1.1	0.0
5. COc1ccc(N2CCN(S(=O)(=O)c3ccc4c(c3)N(C(C)=O)CCO4)CC2)cc1
  -16.8	-4.4	-1.1%	24.0	0.2	-15.0
6. COc1ccc(CCN2CC(C(=O)NCCc3ccccc3C(F)(F)F)CCC2=O)cc1 (stereo not given)
  -2.3	-1.8	-1.1%	12.0	-0.5	9.6
7. CCOc1ccc(S(=O)(=O)N(C)c2ccc(OCC(=O)NCC3CCCO3)cc2)cc1 (stereo not given)
  -18.0	-0.3	0.9%	21.8	0.8	9.3
8. CCOc1ccccc1Nc1nc2ccc(C)cc2n2cnnc12
  9.1	6.0	10.7%	x	x	9.5
9. Cc1ccccc1NC(=O)c1sc2nc[nH]c(=O)c2c1C
  -23.9	0.6	x	-6.2	-0.1	-5.3
10. COc1ccc(Cn2cc(S(=O)(=O)c3ccc(Cl)cc3)c(=O)c3cc4c(cc32)OCO4)cc1
  x	x	-0.9%	19.2	0.2	x
11. CCCCN1CC[C@H]2C=CC[C@@H](C(=O)NCCc3ccccc3)[C@H]2C1=O
  -0.3	-0.1	-0.6%	2.5	-0.3&-0.7	2.0
12. CC1CCCN(C(=O)CN2C(=O)c3ccccc3C2=O)C1 (stereo not given)
  -2.6	1.2	x	16.5	-0.1	4.4
13. Cc1cc2ncn(S(=O)(=O)c3ccc(F)cc3)c2cc1C
  1.3	-6.4	-1.7%	-5.8	0.5	-6.0
14. COc1cc(NC(=O)c2cc(C)on2)cc(OC)c1OC
  -0.7	-2.9	2.8%[38.3 µM]	10.6	0.0	0.7
15. CC1CN(C(=S)NC(=O)c2ccc(Cl)cc2)CC(C)O1 (stereo not given)
  0.8	-3.4	1.4%	-15.0	-0.3	-4.6
16. COc1cc(CCC(=O)OCC(=O)Nc2ccc(C)cc2Cl)cc(OC)c1OC
  3.8	0.6	2.1%	6.6	0.1	0.1
17. CN1CCC(N(C)C(=O)c2ccc(Cl)c(S(=O)(=O)N3CCCCC3)c2)CC1
  12.1	2.7	2.5%	1.0	0.3	6.5
18. O=C(Nc1ccccc1Oc1ccccc1)C1=COCCO1
  -0.6	-2.5	0.1%	-2.6	0.9	0.4
19. N#Cc1ccccc1Sc1ccccc1C(=O)N1CCOCC1
  -1.7	-4.6	-2.0%	17.6	-0.5	2.3
20. CCOc1ccccc1N1CCN(CC(=O)NC(C)c2ccccc2)CC1 (stereo not given)
  -0.5	2.7	-0.7%	1.1	-0.6	3.3
21. S=C(Nc1ccc2[nH]ccc2c1)NC1CCCCC1
  -19.9	-3.7	-0.4%	1.2	4.6	-25.9
22. CC(=O)Nc1ccc(S(=O)(=O)N(Cc2cc3ccc(C)cc3[nH]c2=O)CC2CCCO2)cc1 (stereo not given)
  -4.3	4.5	-0.2%	-10.4	-0.4	x
23. CCOc1ccc(OCC)c(S(=O)(=O)NNC(=O)c2c(C)nc3ccccn23)c1
  -2.2	-0.7	1.4%	10.3	1.1	-14.6
24. COc1ccc(NC(=O)c2oc3ccccc3c2NC(=O)COc2ccc(C(C)C)cc2)c(OC)c1
  x	x	0.3%	-3.9	-0.4	x
25. COc1cc(/C=N/N(C)c2ccccc2)ccc1O
  u	5.2	-0.3%	-10.8	3.3	u
26. Brc1ccc(CN2CCN(c3ccccc3)CC2)o1
  7.6	8.5	-0.5%	6.6	-0.5	3.3
27. CC(=O)c1ccc(S(=O)(=O)N(C)CCCC(=O)N2CCN(c3ncccn3)CC2)cc1
  8.8	-3.3	-2.4%	-7.9	0.1	-7.4
28. CCCOc1ccc(C(=O)Nc2ccc(S(=O)(=O)N3C[C@@H]4C[C@@H](C3)c3cccc(=O)n3C4)cc2)cc1
  -1.1	-1.7	12.8%	-13.9	-0.3	-7.7
29. CC(C)NC(=O)N(Cc1ccc(Cl)cc1)Cc1cccs1
  4.5	-1.9	1.5%	-1.2	5.6	2.0
30. CC[C@@H](NC(=O)[C@@H](Cc1ccccc1)NC(=O)CC[C@H]1O[C@@H](n2ccc(=O)[nH]c2=O)[C@H](O)[C@@H]1O)c1ccccc1
  0.2	0.4	-0.6%	x	-0.6	6.2
31. COc1ccc(C2CC(=O)Oc3cc(C)cc(C)c32)cc1 (stereo not given)
  0.0	0.1	3.5%	-23.2	2.3	4.5
32. Cc1ccccc1OC(=O)c1cccc(S(=O)(=O)N2CCN(C)CC2)c1
  -0.5	0.2	-1.7%	-7.5	-0.1	x
33. FC(F)(F)c1nnc2n1N=C(c1cccs1)CS2
  5.7	8.9	-1.0%	6.3	-0.4	14.2
34. O=C(O)/C=C\c1cccc(-n2cnnn2)c1
  11.7	-1.6	1.1%	-0.7	0.7	-2.2
35. CCN(CC)c1ccc(C(=O)NCc2nc3cccnc3n2Cc2ccc(C)cc2)cc1
  x	x	1.2%	2.0	1.7	x
36. Cc1cc(C)cc(NC(=O)N2CCCN(Cc3c(F)cccc3Cl)CC2)c1
  -2.7	-5.8	0.6%	21.8	0.8	-2.7
37. Cc1cc(C)nc(NC(=O)c2ccccc2O)n1
  7.5	-7.5	-0.7%	-26.8	1.4	x
38. COc1ccc(C)cc1NC(=O)C(NCC(O)c1ccccc1)c1ccccc1 (stereo not given)
  0.0	-2.9	1.3%	-13.6	1.7	x
39. Cc1ccc(S(=O)(=O)NCCc2cc3ccc(C)cc3[nH]c2=O)cc1
  -3.9	-0.3	-1.4%	-12.1	1.2	2.6
40. Cc1sc2ncn(/N=C/c3cn(-c4ccccc4)nc3-c3ccccc3)c(=O)c2c1C
  x	x	-1.2%	39.2	0.3	x
41. COc1ccc(S(=O)(=O)N(CCc2ccccc2)CC(=O)Nc2cc(C)cc(C)c2)cc1OC
  x	x	1.2%	20.9	2.0	x
42. Cc1ccc(Cl)cc1N1CCN(C(=O)c2noc(C(C)C)c2[N+](=O)[O-])CC1
  -28.7	u	0.5%	18.4	-0.2	-12.6
43. CC(=O)N1N=C(N)SC1c1cccc([N+](=O)[O-])c1 (stereo not given)
  0.7	-1.8	0.6%	10.1	-0.3	-3.1
44. O=S(=O)(c1ccc(Br)cc1F)N1CCCCC1CCO (stereo not given)
  -1.4	-3.8	2.4%	-14.0	-0.2	1.3
45. COc1cccc(CCNC(=O)c2cnc3sc(N4CCCCCC4)nn3c2=O)c1
  x	x	3.3%	-5.4	0.0	x
46. CCc1nc2ccc(C(=O)NCCCn3ccnc3)cn2c1N(CC)CCOC
  4.8	2.9	2.4%	x	-0.7	4.1
47. COc1cc(C(=O)Nc2ccc(O)cc2C(=O)O)ccc1OC(C)=O
  -8.8	2.1	5.4%[38.3 µM]	0.8	0.0	-16.8
48. O=C(c1cc2ccccc2o1)N1CCN(c2cccc(C(F)(F)F)c2)CC1
  3.6	-3.6	5.4%	-6.2	-0.6	1.7
49. O=C(O)c1ccc2c(=O)n3c(nc2c1)/C(=C/c1ccc(Cl)c(Cl)c1)CC3
  7.6	-4.1	0.1%	-4.5	0.6	x
50. Cc1oc2c(c1C(=O)c1ccccc1)C(=O)C(=O)c1ccccc1-2
  u	u	-4.1%	-3.5	10.9	u
51. COc1cc2c(c(OC)c1OC)-c1ccc(SC)c(=O)cc1C(NC=O)CC2 (stereo not given)
  -3.5	0.4	0.8%	1.8	-0.1	-1.2
52. O=C(COc1ccc(Cl)cc1)Nc1ccc(O)c(-c2nc3ccccc3s2)c1
  x	x	0.5%	11.4	-0.9	x
53. O=C(OCCN1CCOCC1)c1cccc(F)c1
  -5.5	1.2	2.0%	-4.5	-0.3	-1.3
54. Cc1cc2c(n1-c1ccc(C(=O)NCc3ccccc3Cl)cc1)CCCC2
  x	x	1.8%	20.8	0.7	x
55. O=C(Nc1c(C(=O)N2CCN(c3ccc(F)cc3)CC2)oc2ccccc12)c1ccco1
  x	x	0.0%	3.0	0.2	x
56. O=C(NC1CCCCC1)C1(S(=O)(=O)c2ccc(Cl)cc2)CC1
  0.1	-3.5	-1.4%	12.7	1.2	-0.5
57. Fc1ccccc1N1CCN(c2ncnc3nc[nH]c23)CC1
  -5.4	-2.5	-0.9%	13.7	-0.8	4.0
58. CC1CCCCN1Cc1cnc(Cl)s1 (stereo not given)
  4.3	-3.6	3.9%	u	-0.2	3.7
59. CC(=O)Nc1ccc(S(=O)(=O)N2CCN(Cc3ccncc3)CC2)cc1
  1.6	-2.5	3.2%	-1.4	0.3	1.6
60. COc1ccc(Cl)cc1NC(=O)C1COc2ccccc2O1 (stereo not given)
  17.6	-2.0	2.1%	-0.2	1.1	23.7

Remaining list, next part
Second line of a record – Six1-Eya2 inh	D2 ag	PINK1 expr mod	TRPML1 blocker	TRPML1 agonist	CtBP-E1A blk
61. O=C(C1CC(=O)N(C2CCCC2)C1)N1CCN(c2ccccc2F)CC1 (stereo not given)
  -4.7	-5.7	1.3%	-11.4	-1.0	3.3
62. COc1cccc(/C=N/NC(=O)c2ccc(=O)n(C)c2)c1OC
  1.9	0.7	0.1%	8.7	-0.9	1.5
63. COc1cccc(C(=O)NC2CC(=O)N(c3ccc4c(c3)OCCO4)C2)c1OC (stereo not given)
  x	x	1.4%	0.9	0.0	x
64. CCN(CC(=O)N1CCCC1)S(=O)(=O)c1ccc(F)cc1
  8.4	-5.1	-0.5%	4.0	0.2	-0.1

Compound activity: PubChem, National Center for Advancing Translational Sciences (NCATS)
